Screens (PubChem)
rRNA inh HTS – reduced GFP signal of wild-type E. coli, primary screen, bacterial rRNA inhibitor project, GFP/RFP fluorescence, OD600, single point; E. coli WT GFP vs humanized-ribosome RFP mutants, 24 h; active compounds read low; DMSO median 0, no signal -100; GFP signal change (wild-type ribosome), % (no concentration beside the values); 1.6% of 350,000 active;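 active means significant combined selectivity score with lowered wild-type GFP, culture density cut under 30%, mutant RFP and density less affected; inactive means any of these conditions unmet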; further: one replicate is shown; some compounds called inactive have numbers as strong as hits
Ecoli growth – E. coli growth inhibition, primary screen, OD600; Escherichia coli growth, 23 h; active compounds read low; OD600 absorbance (concentration not given with the values); 0.21% of 330,000 active;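 active means OD600 absorbance below the run mean of sample wells minus 3.6 SD, in any replicate, cut at about 0.56 in these data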;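 further: stock transfer was 300 nL into about 60 µL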
Beta2AR agonist – beta2AR agonists driving receptor internalization, primary screen, cell-based, FAP fluorogen, flow cytometry; AID 504454, 2011; 0.43% of 340,000 active; response, % (test concentration not listed); Am2.2-beta2AR cells; reference of the scale not given here; Beta-2 adrenergic receptor (Homo sapiens), P07550;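 active means response above a set limit, near 3 SD of response in nonfluorescent compounds, cut at about 42% in these data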;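 further: stock transfer was 100 nL into about 11 µL; a reference agonist was the positive control; negative values mostly stem from fluorescent compounds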
Target sequence (P07550 whole entry, looked up): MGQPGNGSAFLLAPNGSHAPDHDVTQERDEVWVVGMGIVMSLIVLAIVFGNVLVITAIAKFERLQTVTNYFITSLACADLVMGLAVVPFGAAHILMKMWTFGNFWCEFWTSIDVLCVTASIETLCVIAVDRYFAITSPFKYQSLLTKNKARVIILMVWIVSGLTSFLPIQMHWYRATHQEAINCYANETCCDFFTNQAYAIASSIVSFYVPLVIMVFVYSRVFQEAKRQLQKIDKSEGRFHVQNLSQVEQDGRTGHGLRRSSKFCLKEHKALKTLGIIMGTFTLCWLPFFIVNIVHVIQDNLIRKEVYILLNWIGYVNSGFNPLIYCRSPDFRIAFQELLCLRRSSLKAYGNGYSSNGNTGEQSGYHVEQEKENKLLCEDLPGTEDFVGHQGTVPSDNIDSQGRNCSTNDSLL
HNF4A DNA FP – change in binding of human HNF4A to DNA, primary screen, biochemical, fluorescence polarization, FITC-DNA; Hepatocyte nuclear factor 4-alpha (Homo sapiens), P41235; 1 h; activity change, % at 10 µM; 0.3% of 360,000 active; AID 1224865, 2016; in the data active means activity change above about 30%, passing the limit was not always enough;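 further: controls were the assay level and a saturating level of protein; the project sought stronger binding though the title names inhibitors; some compounds called inactive have numbers as strong as hits; positive values seem to mean higher polarization but the record does not say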
ALR inh – inhibitors of human ALR sulfhydryl oxidase, primary screen, biochemical, H2O2 detection, HRP-luminol luminescence, single point; FAD-linked sulfhydryl oxidase ALR (Homo sapiens), P55789; purified ALR, DTT oxidation; inhibition, % (test concentration not listed); 3.8% of 290,000 active;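 active means mean and each replicate at 75% or more; inconclusive means only one of the two met; inactive means neither met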;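 further: stock transfer was 7.5 nL into about 7.5 µL; 0% = neutral wells and 100% = wells with inactivated enzyme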
Target sequence (P55789 whole entry, looked up): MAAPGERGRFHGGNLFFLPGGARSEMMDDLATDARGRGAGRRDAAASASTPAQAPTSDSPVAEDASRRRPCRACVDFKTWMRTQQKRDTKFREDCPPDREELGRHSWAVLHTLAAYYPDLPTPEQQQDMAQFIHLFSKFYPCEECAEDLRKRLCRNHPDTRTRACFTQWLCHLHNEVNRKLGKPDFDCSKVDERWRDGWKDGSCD
FGF22 binding – binders of human FGF22 protein, primary screen, FGF22 synaptogenesis inhibitor project, biophysical, thermal shift, single point. 1.5% of 340,000 active. calls only at 9.99 µM. Fibroblast growth factor 22 (Homo sapiens), Q9HCT0. recombinant FGF22 thermal shift, SYPRO orange fluorescence; percent of sucrose octasulfate shift, DMSO zero;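 active means melting point raised past a set limit in the mean and every replicate; inconclusive means no clear call; three in four hits are not shown here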
UCH37 DUB inh – inhibitors of human UCH37 deubiquitinase, primary screen, biochemical, Ub-AMC cleavage, fluorescence; purified proteasome/UCH37; inhibition, % (test concentration not listed); 0.33% of 330,000 active;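 active means mean of two replicates above 20%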;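 further: 0% = compound-free wells with enzyme and 100% = wells lacking proteasome; stock transfer was 100 nL into about 20 µL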
Target sequence (Q9Y5K5 whole entry, looked up): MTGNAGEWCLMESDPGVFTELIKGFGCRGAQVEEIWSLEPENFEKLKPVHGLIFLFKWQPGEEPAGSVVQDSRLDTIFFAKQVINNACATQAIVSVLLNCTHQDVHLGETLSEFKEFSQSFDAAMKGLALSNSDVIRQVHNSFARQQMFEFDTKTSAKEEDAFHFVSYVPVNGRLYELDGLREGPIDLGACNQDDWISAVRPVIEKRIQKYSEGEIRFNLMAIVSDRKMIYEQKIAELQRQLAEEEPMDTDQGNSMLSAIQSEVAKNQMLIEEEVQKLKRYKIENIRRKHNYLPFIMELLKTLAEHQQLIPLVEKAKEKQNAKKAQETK
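Material: human UCH37 enzyme supplied as purified proteasome complex. Measure: % inhibition of Ub-AMC cleavage fluorescence. Medium: pH 7.4 Tris-HCl (50 mM) with ovalbumin, ATP-MgCl2, DTT. Times: 30 min preincubation with enzyme, 25 min cleavage at room temperature. Detection: AMC fluorescence intensity at 355/460 nm.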
rRNA inh HTS OD600 – recorded beside rRNA inh HTS, whose call it bears; OD600 change, %; measured here: OD600 growth;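 optical density of the mix in the first replicate; 0 = DMSO median and -100 = no signal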
rRNA inh HTS RFP – also measured in rRNA inh HTS; calls as there; RFP signal change, %; measured here: RFP humanized mutant strains;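 first replicate; 0 = DMSO median and -100 = no signal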
* hit, by the source's call; i = inactive; ? = inconclusive; nt = no result given. Only part of the results is shown. The share of hits here may be higher or lower than overall.

SMILES	rRNA inh HTS	rRNA inh HTS OD600	rRNA inh HTS RFP	Ecoli growth	Beta2AR agonist	HNF4A DNA FP	ALR inh	FGF22 binding	UCH37 DUB inh
COC(=O)c1cccc(NC(N)=S)c1	6.9	10.8	3.5	0.709	-0.6	-4.2	-14.9	i	1.0
CCNC(=S)N(Cc1ccco1)Cc1cc2cc3c(cc2[nH]c1=O)OCCO3	nt	nt	nt	0.687	0.5	-6.0	0.7	nt	-37.1
CC(C)(C)NC(=O)C(OC(=O)c1ccco1)c1ccc(Cl)cc1 (stereo unspecified)	7.0	3.3	1.7	0.709	-10.2	7.9	-5.8	i	5.0
COCCn1c(=S)[nH]c2cc(C(=O)N3CCN(c4ccc(F)cc4)CC3)ccc2c1=O	nt	nt	nt	0.722	5.2	4.2	?	nt	0.1
Cc1[nH]c(=O)[nH]c(=S)c1C(=O)Nc1ccc(Cl)c(Cl)c1	-8.8	-4.8	-1.1	0.624	8.9	-2.1	-2.3	i	6.5
CC(C)(C)OC(=O)N1CCC(CNC(=O)c2ccc(F)cc2F)CC1	2.8	-2.2	0.3	0.666	-2.8	-0.7	-11.2	i	0.8
Cn1c(=O)c2c(nc(SCCCC#N)n2Cc2c(F)cccc2Cl)n(C)c1=O	-9.1	-13.0	-1.6	0.749	5.1	-0.9	nt	i	1.5
CC(=O)Nc1cc(S(=O)(=O)Nc2ccccc2C)c(C)cc1C	nt	nt	nt	0.717	3.9	-0.2	3.3	nt	-0.9
O=C(Nc1ccncc1)c1ccc(C(=O)Nc2ccncc2)cc1	10.6	14.5	-1.9	nt	2.5	0.2	-7.1	i	nt
CC(C)N(C(=O)Cc1ccccc1[N+](=O)[O-])C(C)C	-0.7	-0.4	-2.1	0.66	-6.9	-1.4	nt	i	0.3
CN(C)c1nc2c(c(=O)[nH]c(=O)n2C)n1CCOc1ccccc1	6.1	0.1	-0.8	0.7	1.2	-0.1	-4.0	i	1.8
O=C(NCCc1ccccc1)c1cc(-c2ccc3c(c2)OCO3)on1	nt	nt	nt	0.777	0.6	-5.1	-6.1	nt	2.5
O=C(O)c1cccc(Nc2nc(-c3cccnc3)nc3ccccc23)c1	-5.5	3.1	3.1	0.685	-6.4	5.6	2.4	i	3.5
CC(=O)Nc1ccc(N)cc1	1.6	12.7	-0.7	0.693	-5.5	-0.1	89.4*	i	2.7
CC(C)C(=O)Nc1cccc(COc2cccc(CN(Cc3ccccc3)C(=O)OC(C)(C)C)c2)c1	6.9	5.4	-1.8	nt	3.5	-1.3	nt	i	nt
COC(=O)c1ccc(CN2C(=O)c3ccccc3S2(=O)=O)cc1	nt	nt	nt	0.654	8.0	1.9	0.1	nt	6.8
CCN1CCN(C(=O)c2cc(-c3cccnc3)nc3ccc(Br)cc23)CC1	6.7	7.8	0.3	0.655	17.2	4.2	26.6	nt	4.7
COC(=O)C1N[C@@H]([C@@H](NC(=O)COc2ccccc2)C(=O)Nc2ccc(OC)cc2)SC1(C)C (stereo partly specified)	-4.4	4.1	-7.4	nt	-7.2	0.8	-5.3	i	4.7
C=CCn1c(N)c(C(=O)Nc2ccc(C)cc2)sc1=S	nt	nt	nt	0.692	2.4	0.1	16.8	nt	6.2
C(=C\c1ccccc1)/CN1CCN(C(c2cccc3ccccc23)c2nnnn2Cc2ccccc2)CC1 (stereo unspecified)	28.0	30.7	18.2	nt	nt	-0.8	nt	i	nt
Cc1ccc(S(=O)(=O)N(CC(=O)Nc2ccc(Cl)c([N+](=O)[O-])c2)C2CCCCC2)cc1	nt	nt	nt	0.731	-5.6	-3.8	-13.3	nt	1.5
Cn1c(=O)c([N+](=O)[O-])c(NCc2ccc3c(c2)OCO3)c2ccccc21	6.4	10.5	-0.7	nt	-6.9	-3.0	-22.1	i	nt
CC(C)c1ccc(NC(=S)N(C)CCc2ccccn2)cc1	-10.3	-9.3	0.1	0.672	4.0	0.8	nt	i	0.9
Cc1ccc(C(=O)N2CCN3C(=O)c4ccccc4C23c2ccccc2)cc1 (stereo unspecified)	9.7	11.0	2.1	0.679	1.3	-3.0	-6.7	i	-2.6

Brought forward from above: four entries; new compounds follow.
SMILES	rRNA inh HTS	rRNA inh HTS OD600	rRNA inh HTS RFP	Ecoli growth	Beta2AR agonist	HNF4A DNA FP	ALR inh	FGF22 binding	UCH37 DUB inh
Cc1ccc(S(=O)(=O)N(CC(=O)Nc2ccc(Cl)c([N+](=O)[O-])c2)C2CCCCC2)cc1	nt	nt	nt	0.731	-5.6	-3.8	-13.3	nt	1.5
Cn1c(=O)c([N+](=O)[O-])c(NCc2ccc3c(c2)OCO3)c2ccccc21	6.4	10.5	-0.7	nt	-6.9	-3.0	-22.1	i	nt
CC(C)c1ccc(NC(=S)N(C)CCc2ccccn2)cc1	-10.3	-9.3	0.1	0.672	4.0	0.8	nt	i	0.9
Cc1ccc(C(=O)N2CCN3C(=O)c4ccccc4C23c2ccccc2)cc1 (stereo unspecified)	9.7	11.0	2.1	0.679	1.3	-3.0	-6.7	i	-2.6
O=C1CN(C(=O)COC(=O)c2ccc(C(F)(F)F)cc2)c2ccccc2N1	14.1	10.6	-0.1	0.69	-5.9	2.1	-0.8	i	0.8
CN(C)c1ccc(C(O)P(=O)(OC2CCCCC2)OC2CCCCC2)cc1 (stereo unspecified)	-33.7*	-18.0*	-1.7*	0.636	-11.9	-0.7	96.8*	i	7.0
O=C(CN1CCC(NC(=O)Nc2ccccc2)CC1)Nc1ccc([N+](=O)[O-])cc1	-5.5	-8.1	-0.1	0.66	-5.5	1.7	-5.0	i	6.9
Cc1cc(=O)[nH]c2c(C)cc(S(=O)(=O)N3CCCCC3)cc12	9.6	4.6	-3.1	0.736	3.0	5.6	-8.3	i	0.9
COc1ccc(NC(=O)CN2CCN(CC(=O)Nc3ccc(F)cc3)CC2)cc1Cl	6.2	7.5	3.1	0.639	7.3	-2.4	-19.4	i	1.1
O=S(=O)(Nc1ccccc1F)c1ccc(Cl)nc1	8.5	7.2	-0.4	0.676	4.9	0.7	nt	i	3.2
CCc1ccc(NC(=O)CN(c2ccc3c(c2)OCO3)S(=O)(=O)c2c(C)noc2C)cc1	6.5	18.0	3.5	0.772	-0.7	-2.7	20.9	i	2.9
COC(=O)C1(C)NC(c2ccc(C)cc2)C2C(=O)N(c3ccc(F)cc3)C(=O)C21 (stereo unspecified)	10.5	10.4	-2.2	0.694	6.0	-0.1	-12.8	i	2.7
CCn1c(SC(C)C(=O)Nc2ccc(N3CCOCC3)cc2)nnc1-c1ccco1 (stereo unspecified)	0.0	-3.3	0.7	0.683	-1.8	-1.9	46.7	i	3.5
O=C(O)C1CCCCC1C(=O)NCCCc1ccccc1 (stereo unspecified)	nt	nt	nt	0.722	0.7	-3.0	0.1	nt	2.1
Cc1nc2ccccc2c(=O)n1-c1ccc(NS(=O)(=O)c2cc(F)ccc2F)cc1	-7.0	-7.1	-3.0	0.652	-1.8	-1.9	-6.8	i	0.0
Cc1cc(C)cc(NC(=O)c2cccn2-c2ncc(C(F)(F)F)cc2Cl)c1	nt	nt	nt	0.654	5.1	1.0	3.5	nt	3.5
Cc1cc(OC(C)C(=O)NCCCN2CCCC2=O)c2c(C)c(C)c(=O)oc2c1 (stereo unspecified)	2.5	-8.8	4.3	0.716	-0.8	0.5	-4.1	i	-255.9
Cc1ccc(S(=O)(=O)NC2c3cccc4cccc(c34)C2Sc2nncn2C)cc1 (stereo unspecified)	6.5	12.3	6.1	0.689	-0.9	-0.5	-0.6	i	0.9
COc1cc(OC)cc(-c2sc3ccc(OC)cc3c2C#CC2(N)CCCCC2)c1	-52.5	-79.5	-12.6	nt	18.8	1.4	-13.7	i	nt
O=C(/C=C/c1ccc(Cl)cc1)NCCCn1ccnc1	nt	nt	nt	0.644	0.6	-0.1	-9.4	nt	4.9
CCN1C(=NCc2ccc(OC)cc2)N[C@@H](CCc2ccccc2)[C@H](C(=O)NCc2ccc(OC)cc2)[C@H]1C	nt	nt	nt	nt	4.5	nt	-23.2	nt	3.0
O=C(N/N=C/c1ccccc1O)c1cccc(C(F)(F)F)c1	nt	nt	nt	nt	5.8	0.7	-5.8	nt	nt
Cc1nc(SCC(=O)NCc2ccco2)[nH]c(=O)c1C	12.4	7.3	-1.8	0.625	-2.6	0.9	-5.8	i	3.1
C=C(C)CN(CC)c1nc(N)c(C#N)c(CC#N)c1C#N	nt	nt	nt	0.67	-18.9	0.5	-9.4	nt	0.8
CCOc1ccccc1CNC(=O)c1ccccc1NC(=O)C1=CSCCO1	-3.3	-14.2	4.2	0.701	-1.2	3.6	13.1	i	0.2
Oc1cc(NCCc2cccnc2)cc2cccnc12	64.3	-4.6	-15.5	0.601	-2.9	-4.9	52.0	i	-1.7
CCc1nc2cccnc2n1-c1ccc(CC(=O)O)cc1	-1.8	4.9	11.9	0.693	-12.3	-4.7	-7.5	i	1.3
O=C(NCc1ccc2c(c1)OCO2)c1ccc2c(c1)OCO2	7.0	0.5	3.5	0.687	-0.1	-1.6	-5.2	i	0.0
CC(CNC(=S)Nc1cc(F)cc(F)c1)CSc1ccc(Cl)cc1 (stereo unspecified)	-57.7	-82.5	-30.8	0.635	4.9	-1.3	-5.6	i	2.0
COc1ccccc1NC(=S)N1CCN(c2ncccn2)CC1	8.8	7.0	1.9	0.665	2.6	8.3	-4.4	i	1.4
COc1ccccc1N1CCN(C(=O)CCSCc2ccccc2F)CC1	4.3	3.9	-2.5	0.682	1.7	-2.0	95.7*	i	2.2
COc1ccc(CCC(=O)Nc2ccc(C)c([N+](=O)[O-])c2)cc1	nt	nt	nt	0.662	0.1	0.6	-4.6	i	4.0
O=c1oc2ccccc2cc1-c1nc(-c2cccs2)cs1	nt	nt	nt	0.786	11.2	-71.4	-4.5	nt	-32.2
CCN(CC)c1ccc(C=C2SC(=S)NC2=O)cc1	-12.0	-37.7	64.8	nt	-119.5	5.0	nt	i	nt
NC(=O)CC(NC(=O)Cc1cccc2ccccc12)c1ccc(NC2CCCCCC2)c([N+](=O)[O-])c1 (stereo unspecified)	6.4	9.8	-3.5	0.644	0.1	20.6	-4.0	i	1.1
CCOc1ccc(Cc2c(Cl)nc(SC)nc2N(C)C)cc1	-9.7	-7.8	-1.3	0.685	-0.1	0.5	-8.7	i	-1.0
COc1ccc2nc(C(C)O)[nH]c2c1 (stereo unspecified)	nt	nt	nt	0.699	4.5	0.9	-47.0	nt	-0.7
O=C(/C=C/c1ccco1)Oc1ccc(C(=S)N2CCOCC2)cc1	-13.1	-23.3	0.2	0.681	-5.2	-1.6	-29.8	i	5.0
Cc1[nH]n(-c2ccc(Br)cc2)c(=O)c1/C=N/NC(=O)c1ccccc1	-7.4	-5.2	2.2	nt	14.7	3.9	2.7	i	nt
CC1(C)Cc2c(c(-c3ccccc3)nc(N3CCCC3)c2C(N)=O)CO1	nt	nt	nt	0.679	-8.6	0.9	1.0	nt	-1.6
O=C(OCC(=O)N1CCN(c2cccc(Cl)c2)CC1)c1ccco1	-2.2	3.5	-1.0	0.653	14.6	-1.8	1.5	i	3.7
N#Cc1cn(CC(=O)NCc2cccnc2)c2ccccc12	9.3	0.6	0.1	0.675	9.4	-1.0	1.2	i	-1.1
